Assay outcomes (PubChem)
ugtP null kill: kills S. aureus RN4220 lacking UgtP; S. aureus RN4220 ugtP deletion, OD600 growth, 16 h; some inactives read as strong as hits; growth inhibition, % (concentration not given with the values); 330,000 compounds, 0.54% hits;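 active = z-score under -3 and OD600 up to 0.15 on both plates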;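 also: plate controls were untreated wells for no effect and antibiotic for full effect; wells of about 80 µL received 100 nL stock; the first replicate is given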
PrP 5UTR inh: inhibition of PrP 5' UTR reporter expression. inhibition, % (no concentration beside the values). cell-based PrP 5' UTR mRNA reporter, plate reader. 340,000 compounds, 0.35% hits;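 active = every replicate at 50% or more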;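 also: 0 = median of the neutral control wells; tested in H4 reporter cells; numbers are from one replicate; inactives centre near -14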
RN4220 kill: S. aureus RN4220 growth inhibition. OD600, 16 h. inhibition, % (test concentration not listed). 330,000 compounds, 0.33% hits. AID 1259311;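 active = z-score of -3 or lower and OD600 up to 0.18 on both plates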;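 also: plate controls were untreated cells for no effect and reference antibiotic for full effect; stock transfer was 100 nL into about 80 µL; one replicate is shown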
Mtb hypoxia rep: Mtb hypoxia fluorescent reporter inhibition. M. tuberculosis hypoxia-regulated fluorescent reporter, fluorescence. fluorescence inhibition, % (test concentration not listed). 300,000 compounds, 0.1% hits. AID 1159583;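 active = 35 to 45% if threefold the growth effect, above 45% if 1.5-fold the growth effect; inactive = the rest, general growth blockers included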;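 also: wells of about 50 µL received 100 nL stock; 0% = vehicle wells and 100% = reference inhibitor wells; whole bacteria with a GFP reporter of the hypoxia response; strong numbers were not always called active; many hits fall short of the cut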
Bead autofluor: compound fluorescence in toxin protease inhibitor counterscreen. compound autofluorescence counterscreen, microsphere flow cytometry; active compounds read high. fluorescence intensity (test concentration not listed). 360,000 compounds, 3.1% hits. AID 624483;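 active = at least 3 SD above the mean of all compounds, about 16000 in these data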;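 also: 100 nL of 1 mM stock went into each well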
BJeLR lethal: BJeLR cell viability loss | AID 1554 | BJeLR (HRASV12) viability, CellTiter-Glo ATP luminescence, 48 h; reference of the scale not given here | 300,000 compounds, 0.17% hits | inhibition, % (test concentration not listed);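 active = replicate mean above 50%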;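 also: 50 nL library stock added to about 25 µL; numbers are from one replicate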
Mtb hypoxia rep growth: further read-out of Mtb hypoxia rep, marked with its call; growth inhibition, %; measured here: M. tuberculosis growth (absorbance);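 0% = vehicle and 100% = reference antibiotic; read after six days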
The depositor's hits bear a star; / = not tested or not shown.

SMILES | ugtP null kill | PrP 5UTR inh | RN4220 kill | Mtb hypoxia rep | Mtb hypoxia rep growth | Bead autofluor | BJeLR lethal
COC(=O)N1C(=O)[C@@](c2ccccc2)(C2CCCCC2)N1C(=O)OC | -9 | -14 | 3.0 | 7 | 7 | 2989 | -6
CCCCOC(=O)CCc1nc2ccccc2[nH]1 | 5 | -23 | 2.6 | -1 | 4 | 5273 | -4
CC1CCN(S(=O)(=O)c2cn(CC(=O)N3CCN(C)CC3)c(=O)c3ccccc23)CC1 | 0 | 14 | 1.0 | / | / | 2326 | -1
CCCNC(=O)COc1coc(CN2CCN(c3ccccc3F)CC2)cc1=O | 1 | 6 | 1.5 | -18 | -13 | 4154 | -8
C/C(=N/N=C(\C)c1ccccc1O)c1ccccc1O | / | -63 | / | / | / | 3876 | 4
c1ccc(CNc2ccc3ccccc3n2)nc1 | 11 | -41 | 8.3 | 9 | -3 | 10572 | 5
Cc1ccc(C23CC4CC(CC(CC(=O)N5CCOCC5)(C4)C2)C3)cc1 | -15 | -8 | 2.4 | 5 | 6 | 3915 | -7
CCOC(=O)C1CCN(S(=O)(=O)c2ccc(C(C)(C)C)cc2)CC1 | 2 | -47 | 6.4 | 0 | -1 | 3917 | 8
Cc1csc(NC(C)c2nc3cc(C(F)(F)F)ccc3n2CCOCCO)n1 (centres undefined) | 5 | -17 | -0.3 | 8 | 4 | 3971 | -8
O=C(C[n+]1ccc(C(=O)NCc2ccccc2)cc1)c1ccc(OC(F)F)cc1 | 3 | -6 | 2.1 | -6 | 3 | 4609 | -4
Cc1cccc(-c2ocnc2C(=O)N2CCN(C(=O)c3cccs3)CC2)c1 | 0 | 2 | 1.1 | -3 | -2 | 6016 | -12
CCCOc1ccc(C(=O)ON=C(CC)c2ccc(C)cc2)cc1 | 93* | / | -2.1 | 6 | 7 | / | /
COc1ccc(C(=O)N(CCc2ccccc2)Cc2ccccc2)c(OC)n1 | / | -18 | / | / | / | 4252 | 3
CN(c1nc2ccccc2n2c(C3CC3)nnc12)S(=O)(=O)c1ccccc1 | 4 | -9 | 3.0 | 0 | -8 | 4767 | -9
CC(C)(Cc1ccccc1)/[N+]([O-])=C\c1ccc(C(F)(F)F)cc1 | / | -17 | / | / | / | 3611 | 10
Cc1ccc2c(c1)C1CN(C)CCC1N2S(=O)(=O)c1cccc(C(F)(F)F)c1 (centres undefined) | 2 | -13 | 1.7 | 10 | 9 | 5020 | /
N#Cc1nc(-c2ccc(F)cc2)oc1NCc1ccccc1 | 7 | -25 | 1.7 | 11 | 8 | 3976 | -4
COC(=O)c1cc2n(n1)CCN(Cc1ccccc1Cl)C2=O | 3 | -12 | 0.7 | / | / | 2544 | 5
COC(=O)c1ccc(-n2nc(C(F)(F)F)c3c2-c2ccoc2CC3)cc1 | 16 | -13 | 4.7 | 20 | 15 | 4835 | -14
O=c1[nH]c(=O)n(CCC2=CCCCC2)c(O)c1C=NCCN1CCNCC1 | -7 | -28 | 2.1 | 1 | 13 | 9064 | -1
CC1CN(C(C)CO)C(=O)c2cc(NC(=O)CCN3CCOCC3)ccc2OC1CN(C)C(=O)Nc1ccccc1 (centres undefined) | 5 | / | 4.7 | 6 | 10 | / | /
Cn1cc([N+](=O)[O-])c(C(=O)NN=Cc2ccc3c(c2)OCO3)n1 | 3 | / | 1.5 | 1 | 5 | / | /
COc1cc(C(=O)NCC2(c3ccccc3)CCCC2)ccc1OC(C)C | 7 | -18 | -2.8 | 1 | -1 | 3612 | 0
CC1CCCCC12NC(=O)N(CC(=O)OCC(=O)c1ccc(OC(F)F)cc1OC(F)F)C2=O (centres undefined) | 13 | -2 | 5.8 | -9 | -5 | 3997 | 11
COc1cc(C2NC(=O)NC(C)=C2C(=O)OCc2ccc(C)cc2)cc(OC)c1OC (centres undefined) | 3 | -12 | 7.3 | 13 | 2 | 3807 | 4

Compound profiles, from the list above. Order of values: ugtP null kill	PrP 5UTR inh	RN4220 kill	Mtb hypoxia rep	Mtb hypoxia rep growth	Bead autofluor	BJeLR lethal
`CCCNC(=O)COc1coc(CN2CCN(c3ccccc3F)CC2)cc1=O` is listed with 1	6	1.5	-18	-13	4154	-8
`CC1CCCCC12NC(=O)N(CC(=O)OCC(=O)c1ccc(OC(F)F)cc1OC(F)F)C2=O` (centres undefined) is listed with 13	-2	5.8	-9	-5	3997	11

Four entries already listed, arranged by molecular weight, falling.
SMILES | ugtP null kill | PrP 5UTR inh | RN4220 kill | Mtb hypoxia rep | Mtb hypoxia rep growth | Bead autofluor | BJeLR lethal
CC1CCN(S(=O)(=O)c2cn(CC(=O)N3CCN(C)CC3)c(=O)c3ccccc23)CC1 | 0 | 14 | 1.0 | / | / | 2326 | -1
O=c1[nH]c(=O)n(CCC2=CCCCC2)c(O)c1C=NCCN1CCNCC1 | -7 | -28 | 2.1 | 1 | 13 | 9064 | -1
COc1cc(C(=O)NCC2(c3ccccc3)CCCC2)ccc1OC(C)C | 7 | -18 | -2.8 | 1 | -1 | 3612 | 0
N#Cc1nc(-c2ccc(F)cc2)oc1NCc1ccccc1 | 7 | -25 | 1.7 | 11 | 8 | 3976 | -4

The listing picks up; the four compounds before the break are reprinted first.
SMILES | ugtP null kill | PrP 5UTR inh | RN4220 kill | Mtb hypoxia rep | Mtb hypoxia rep growth | Bead autofluor | BJeLR lethal
Cn1cc([N+](=O)[O-])c(C(=O)NN=Cc2ccc3c(c2)OCO3)n1 | 3 | / | 1.5 | 1 | 5 | / | /
COc1cc(C(=O)NCC2(c3ccccc3)CCCC2)ccc1OC(C)C | 7 | -18 | -2.8 | 1 | -1 | 3612 | 0
CC1CCCCC12NC(=O)N(CC(=O)OCC(=O)c1ccc(OC(F)F)cc1OC(F)F)C2=O (centres undefined) | 13 | -2 | 5.8 | -9 | -5 | 3997 | 11
COc1cc(C2NC(=O)NC(C)=C2C(=O)OCc2ccc(C)cc2)cc(OC)c1OC (centres undefined) | 3 | -12 | 7.3 | 13 | 2 | 3807 | 4
CCOC(=O)CSc1ncc(-c2ccccc2)cn1 | 0 | -6 | 7.2 | 1 | 14 | 11400 | 8
CC1C2CC(CC1(C)C)N(C(=O)Nc1ccc3nccnc3c1)C2 (centres undefined) | -1 | -9 | -12 | 1 | 5 | / | 4
Cn1c(=O)[nH]c(=O)c2c1nc(NN=Cc1cccnc1)n2Cc1ccc(Cl)cc1 | -6 | / | -1.6 | 0 | -3 | / | /
N#CC1=C(N)SC(N)=C(C#N)C1Cc1ccccc1 | -3 | -17 | 2.0 | 0 | 8 | 10931 | -7
O=C(O)C1CCCCN1C(=O)c1cc2c(s1)CCCCC2 (centres undefined) | 0 | -14 | 0.6 | 4 | -4 | 7055 | /
COc1nc(NCc2ccc(Cl)cc2)nc(OC)n1 | 1 | -13 | 3.5 | 10 | 10 | 2527 | -4
CCN(Cc1nc2ccccc2c(=O)[nH]1)C(=O)C1CC(=O)N(c2cccc3ccccc23)C1 (centres undefined) | 8 | -11 | 1.4 | 2 | 4 | 9495 | /
O=c1cc(CSc2ccccc2)nc(-c2ccncc2)[nH]1 | 10 | -3 | 8.5 | 8 | 4 | 3491 | 2
CC(=O)c1c(C)n(-c2ccc(Br)cc2)c2ccc(O)cc12 | 8 | 2 | 4.8 | 17 | 7 | 3214 | -5
Cc1ccc(C(=O)COC(=O)c2ccncc2)cc1[N+](=O)[O-] | -1 | -5 | 2.4 | 0 | 5 | 2472 | -5
CCN1C(=O)C2C(c3ccc(-c4ccccc4)cc3)N3CCC[C@@]3(C(=O)OC)C2C1=O (some centres undefined) | 1 | / | 3.0 | -5 | 2 | / | /
O=C1CS/C(=N/N=C/c2ccccc2)N1c1ccc(O)cc1 | / | -17 | / | / | / | 4160 | -4
O=C(NCc1ccco1)NC1CCCCC1 | -2 | -16 | 1.2 | / | / | 4194 | -8
CC(C)(C)OC(=O)NCc1ccc(NC(=O)c2nc[nH]c2C(=O)N[C@@H](Cc2ccccc2)C(=O)OCc2ccccc2)cc1 | / | -9 | / | / | / | 3793 | -2
Nc1nc(NCC(=O)O)nc(N2CCCCCC2)c1[N+](=O)[O-] | 10 | -23 | 9.8 | 6 | 2 | 3022 | 5
CCCC(O)(CCN1CCOCC1)c1ccc(Br)cc1 (centres undefined) | 0 | -15 | 4.3 | 13 | 10 | 9558 | 9
Cc1ccc(-n2c(O)c(C=NCCN(C)C)c(=O)[nH]c2=O)cc1 | 10 | -7 | 6.3 | 4 | -1 | 2201 | 2
O=C(Nc1ccc(Cl)cc1C(=O)c1ccccc1)c1ccco1 | 28 | -20 | 3.3 | 7 | -1 | 7038 | -22
COc1ccc(C(=O)Nc2ccccc2C(=O)NC(Cc2ccc(O)cc2)C(=O)NNC(=O)c2ccccc2)cc1 (centres undefined) | 6 | -17 | 2.6 | -3 | 6 | 10233 | -1
CC(C)[C@H](NC(=O)N1CC(=O)Nc2ccccc21)C(=O)N[C@@H](Cc1ccccc1)C(=O)O | 2 | -13 | 4.7 | / | / | 5099 | -2
S=c1[nH]nc(-c2cccnc2)n1/N=C/C=C/c1ccco1 | / | 8 | / | / | / | 2141 | 3
O=C(CCN1C(=O)C2C3CCC(C3)C2C1=O)Nc1ccc(Cl)cc1Cl (centres undefined) | 10 | 13 | 3.9 | 2 | 3 | 4909 | -13
COc1cccc(OCc2nnc(SCC(=O)OCc3ccccc3)o2)c1 | -1 | -22 | -0.6 | -1 | 4 | 11066 | -6
COc1ccc(-c2cnn3c(N)c(S(=O)(=O)c4ccccc4)cnc23)cc1 | 5 | -20 | -2.0 | -4 | -4 | 20604* | -3
Cc1ccc(NS(=O)(=O)c2ccc(Cl)c(C(=O)O)c2)cc1S(=O)(=O)N1CCOCC1 | 11 | -36 | 1.6 | 7 | 12 | 2011 | 0

(list continues)
SMILES | ugtP null kill | PrP 5UTR inh | RN4220 kill | Mtb hypoxia rep | Mtb hypoxia rep growth | Bead autofluor | BJeLR lethal
O=C(Oc1c(Cl)cc(Cl)c2cccnc12)c1cccc([N+](=O)[O-])c1 | 97* | -7 | 97* | -3 | 7 | 2502 | 2
CC(=O)NS(=O)(=O)c1ccc(N2C(=O)CC(Sc3nccc(C)n3)C2=O)cc1 (centres undefined) | 12 | -14 | 1.7 | 14 | 9 | 3678 | 0
CCOc1cc(N2CCOCC2)c(OCC)cc1NC(=S)NCCCOC | 17 | -25 | 2.8 | 6 | 13 | 3991 | 20
O=C(C=Cc1ccco1)N1CCOCC1 | 3 | -14 | 0.4 | 16 | 2 | 3017 | /
COc1ccc(CCNS(=O)(=O)CC23CCC(CC2=O)C3(C)C)cc1OC (centres undefined) | 4 | -35 | 1.4 | 8 | 6 | 3791 | 1
COc1ccc(CCNC(=O)COC(=O)Cc2ccccc2[N+](=O)[O-])cc1 | 1 | -21 | 3.4 | -8 | 2 | 8533 | /
CCc1nc(SCc2cc(=O)[nH]c3ccccc23)c2c(C)c(C)sc2n1 | -3 | 1 | -2.6 | 1 | -5 | 4824 | /
O=C(CN1CCN(c2ccccc2)CC1)Nc1nnc(-c2ccccc2)s1 | 10 | -14 | -1.4 | / | / | 4788 | 6
CC(C)CCn1c(Sc2nc3ccccc3o2)nc2c1c(=O)[nH]c(=O)n2C | -4 | -83 | 8.3 | 9 | 6 | 2181 | -1
NC(=O)C1c2ccccc2Oc2ccccc21 | 2 | -29 | 26 | 1 | 5 | 3772 | -1
CCOc1ccc(CCNC(=O)COC(=O)c2c(OC)cccc2OC)cc1OCC | 1 | -29 | 2.4 | 5 | 8 | 4060 | 9
O=C(Nc1ccc(Cl)c([N+](=O)[O-])c1)C(Sc1ccccc1)c1ccccc1 (centres undefined) | 99* | -10 | 86* | 3 | 7 | 9711 | 9
COc1ccc(S(=O)(=O)Nc2c(C)cccc2C)cc1-n1cnnn1 | 0 | -30 | 8.2 | 0 | 3 | 4070 | -7
CN(C)CCCNC(=O)Cc1ccc(Br)cc1 | 3 | -36 | 0.9 | 7 | 3 | 11197 | 0
CC(C)(C)c1ccc(OCC(O)CNC(=O)c2ccccc2C(=O)O)cc1 (centres undefined) | 9 | -14 | 2.2 | / | / | 2530 | -2
CC1CC(C)CN(S(=O)(=O)c2ccc3c(c2)oc(=O)n3CC(=O)N(C)Cc2ccccc2)C1 (centres undefined) | 12 | -17 | 7.4 | 7 | 2 | 5419 | 2
COC(=O)C(C)(C)ONC(=O)Nc1ccc([N+](=O)[O-])cc1 | 2 | -32 | 3.1 | 8 | 21 | 4109 | 2
